From PubChem BioAssay
gsp antagonist = antagonists of gsp mutant (McCune-Albright syndrome); 340,000 tested, 0.4% active; Potency, µM (doses to about 76.9 µM), without a hit: at the highest dose activity change, negative = inhibition, usual class: inhibitors; gsp-mutant cells, cAMP HTRF, 30 min; control for the full effect not named in the record; AID 624288; active = falling curve of any shape with a large fitted effect; inconclusive = falling curve, mostly with a smaller effect; inactive = flat or rising curve; cell line not stated here;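 note: intracellular cAMP measured with PDE inhibitor Ro 20-1724 present during compound exposure; potency is the fitted concentration of half-maximal effect; % is set by controls: 0 for no effect and ±100 for the full control effect; nearly all actives have a fitted effect of over 65% in size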
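Cells, 2000/well, grown 16–24 h in DMEM 10% FBS with 0.5 mg/ml G418, then compounds plus […] (300 uM addition stock), 30 min at 37C. cAMP read by HTRF (cAMP-d2 and anti-cAMP antibody-K in lysis buffer) after 30 min RT.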
TRPV1 potentiator = enhances activation of the human vanilloid receptor TRPV1; Q8NER1; TRPV1-expressing cells, Fluo-8 calcium influx, capsaicin EC20 potentiation; host cell line not named in the record; control for the full effect not named in the record; potentiation, % at 8.33 µM; 320,000 tested, 0.02% active; active means potentiation above 80%; inconclusive means 30% to 80%; inactive means below 30%; note: 0% is about no effect
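Fluo-8 calcium influx in TRPV1-expressing cells, kinetic read (ex 480/em 520 nm). Compound added and read 3 min for agonist activity, followed by capsaicin at EC20 final and 2 min further read for enhancement.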
gsp agonist = activates gsp, the McCune-Albright syndrome mutation; gsp mutant cells, cAMP HTRF, 30 min; control for the full effect not named in the record; Potency, µM (highest dose often 76.9 µM), for the others: at the highest dose activation (cAMP increase), usual class: activators; 340,000 tested, 0.13% active; active = well fitted activation curve with a large enough effect; inconclusive = small, poorly fitted or top-dose-only effect, or another doubt; inactive = no such curve, though single readings can be large or run the other way; cell line not stated here;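 note: phosphodiesterase inhibitor Ro 20-1724 added with compounds to block cAMP breakdown; potency is the fitted concentration of half-maximal effect; nearly all actives have a fitted effect of over 60% in size; about a fifth of the inactives were tested at one dose only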
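Cells stably selected in G418 were plated at 2000/well, grown 16-24 hr, then given compounds in DMSO with the PDE inhibitor […] (300 uM solution added) for 30 min at 37C; cAMP was read by HTRF.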
TRPML1 blocker = blocks the human TRPML1 channel; TRPML1-inducible cells, Ca2+ dye fluorescence, FDSS; hits give low values; inhibition of EC80 agonist-evoked calcium signal; AID 624415; Q9GZU1; activity change, negative = inhibition, % (test concentration not listed); 390,000 tested, 0.02% active; in the data active means activity change below about -50%; inconclusive means about -30% to -50%; inactive means above about -30%;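 note: stimulus is agonist 54-4 at its EC80 concentration; % is set by controls: 0 for no effect and ±100 for the full control effect; compound concentration not given in the record; the text of the record puts the active cut at -80%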
Target sequence (Q9GZU1 whole entry, looked up): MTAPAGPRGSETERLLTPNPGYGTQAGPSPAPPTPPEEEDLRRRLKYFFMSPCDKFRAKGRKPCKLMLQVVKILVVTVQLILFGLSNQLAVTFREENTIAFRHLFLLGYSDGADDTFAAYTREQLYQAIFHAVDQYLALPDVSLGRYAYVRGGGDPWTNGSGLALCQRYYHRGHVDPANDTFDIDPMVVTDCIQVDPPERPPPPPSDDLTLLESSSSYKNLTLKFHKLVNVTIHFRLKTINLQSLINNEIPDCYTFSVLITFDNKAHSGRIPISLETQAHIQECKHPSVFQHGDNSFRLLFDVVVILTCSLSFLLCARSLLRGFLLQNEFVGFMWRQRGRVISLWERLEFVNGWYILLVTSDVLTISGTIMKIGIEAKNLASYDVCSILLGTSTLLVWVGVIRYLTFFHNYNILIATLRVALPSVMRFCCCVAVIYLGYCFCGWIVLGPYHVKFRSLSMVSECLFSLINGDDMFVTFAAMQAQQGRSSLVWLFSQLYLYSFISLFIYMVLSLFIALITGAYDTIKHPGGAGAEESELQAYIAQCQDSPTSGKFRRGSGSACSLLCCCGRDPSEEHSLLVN
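Calcium fluorescence in TRPML1-DL cells induced overnight with Tet: a 110 s read after compound pin addition, then a 110 s antagonist read after challenge with 54-4 at 4 uM final (EC80).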
Sfp PPTase inh = Sfp phosphopantetheinyl transferase inhibition | Q9F4F7 | Biochemical Sfp PPTase activity, qHTS | Potency, µM, inactives show max response, negative = inhibition, hits mostly inhibitors | 310,000 tested, 3.5% active; active = well fitted inhibition curve with a large enough effect; inconclusive = small, poorly fitted or top-dose-only effect, or another doubt; inactive = no such curve, though single readings can be large or run the other way;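 note: the enzyme is Sfp with the accession as filed and its product quenches rhodamine fluorescence; potency is the fitted concentration of half-maximal effect; 0% = enzyme reaction without inhibitor and -100% = no enzyme wells; top concentration of the series not given in the record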
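Fluorescence-quenching assay with 15 nM Sfp, 5 uM rhodamine-CoA and 12.5 uM BHQ-2-labelled ybbR peptide in pH 7.6 Hepes/MgCl2 buffer. Enzyme was pre-incubated with compound for 15 min at room temperature. Rate was taken from the 30-min fluorescence change (525/598 nm).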
ClpP mod = qHTS Assay for Activators of ClpP; purified B. subtilis ClpP, FRET peptide cleavage, 20 min; Potency, µM (titrated, usually from 57.5 µM), for inactives: at the highest dose activity change, negative = active; 340,000 tested, 1.9% active; AID 651965, 2013; active = well fitted falling curve with a large enough effect; inconclusive = small, poorly fitted or top-dose-only effect; inactive = no such curve, though single readings can be large or run the other way; note: potency is the fitted concentration of half-maximal effect; the source files actives as falling curves though it sought activators and does not explain the sign; nearly all actives have a fitted effect of over 65% in size; many hits overshoot -100%
Target sequence (P80244 whole entry, looked up): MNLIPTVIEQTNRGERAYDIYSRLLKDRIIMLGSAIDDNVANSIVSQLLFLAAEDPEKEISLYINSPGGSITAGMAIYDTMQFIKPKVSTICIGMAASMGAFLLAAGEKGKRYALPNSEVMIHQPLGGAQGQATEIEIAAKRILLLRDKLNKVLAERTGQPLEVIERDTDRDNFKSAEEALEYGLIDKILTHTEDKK
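FRET quenching reversal measured ClpP activation: 10 microg/mL B. subtilis ClpP at pH 8 with the FRET-FV decapeptide, read at 430 nm after 320 nm excitation. The 20-min minus 0-min signal was scaled between DMSO/no-enzyme wells and ADEP (5.8 microM final).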
Menin MLL FP FL = menin-MLL binding inhibition, fluorescein peptide; Fluorescence polarization, fluorescein-MLL peptide displacement from menin; FP activity change, % at 61.4 µM; 290,000 tested, under 10 active; inconclusive = falling polarisation curve, or a change in total fluorescence; inactive = total fluorescence flat and polarisation flat or rising; no compound was filed as active; the % refers to the polarisation; negative = inhibition;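 note: % of control where 0% means no effect; inhibitors lower the polarisation; unlabelled MLL peptide was the positive control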
Numbers without * were called inactive; ? = inconclusive; . = no result given; & = joins results of further samples; [ ] = another dose, or the depositor's remark.

Molecule | gsp antagonist | TRPV1 potentiator | gsp agonist | TRPML1 blocker | Sfp PPTase inh | ClpP mod | Menin MLL FP FL
CCOc1ccc(C(=O)NCC(=O)OCCN2C(=O)c3ccccc3C2=O)cc1OCC | 1% | 3 | 16% | -6 | . | 0.2% | .
Nc1c2c(nc3ccccc13)CCC2 | 2% | 30 | 1% | -4 | -6% | ? | -0.6
CCCCN(C)C(=O)C(Cc1ccccc1)NS(=O)(=O)c1ccc2c(c1)c(=O)n(C)c(=O)n2C (stereo not given) | -16% | 5 | -3% | -9&-5 | 7% | -11%&-8.1% | 1.0
CCc1c(C)sc(NC(=O)Cc2ccccc2C)c1C(=O)N1CCOCC1 | 9% | 5 | -68%[inhibitor] | 26 | -10% | -2.9% | .
COCCN(C(=O)COC(=O)c1ccc2c(c1)OCCO2)c1c(N)n(Cc2ccccc2)c(=O)[nH]c1=O | 1% | 22 | 6%[15.4 µM] | -13 | . | . | .
CCOc1ccc(C(=O)Nc2cccc(-c3nc4ccccc4[nH]3)c2C)cc1[N+](=O)[O-] | -1% | -16 | 3% | 4 | 17% | -4.6% | 4.3
CN(C)CCNc1ncnc2c1sc1nc(N3CCCC3)c3c(c12)CC(C)(C)OC3 | 7% | -18 | 12%[15.4 µM] | 9 | -9% | . | 1.5
O=C(COC(=O)CCc1ccccc1)Nc1ncc(Cl)cc1Cl | 5% | -4 | 15% | 8 | -7% | -2.5% | 1.6
Cc1onc(-c2c(F)cccc2Cl)c1C(=O)NCCCN1CCOCC1 | 9% | 10 | -29% | 13 | 30% | 0.3% | -0.3
CCOC(=O)c1nnsc1NC(C)=O | -10% | 2 | ? | 9 | 2% | 1.0% | 1.3
COc1ccc(NC(=O)c2sc3nc(C)nc(N4CCOCC4)c3c2C)c(OC)c1 | -1% | -36 | 17%[15.4 µM] | -19 | ? | . | 4.2
CCC(C)(C)NC(=O)C(c1ccc(OC)cc1)N(C(=O)CCC(=O)Nc1cc(C)on1)C1CC1 (stereo not given) | 2% | -1 | 0%[15.4 µM] | 3 | 5% | . | -0.9
CCOC(=O)CC(=O)CSc1ncnc2c1oc1ccccc12 | ? | 9 | ? | 11 | 13% | -5.5% | 4.7
CC(C)(C)OC(=O)N[C@@H](COCc1ccccc1)C(=O)N[C@@H](CO)[C@H](O)[C@@H]1C[C@@H]1C(=O)NC1CC1 | 1% | 2 | . | -8 | 15% | -2.7% | -2.4
Cc1sc2ncn(CC(=O)NCCCC(=O)N3CCN(c4ccccn4)CC3)c(=O)c2c1C | -3% | -2 | 0% | -14 | 11% | -6.4% | 10
O=C(CC(c1ccccc1)c1ccccc1)Nc1ncn[nH]1 | 5% | 12 | -28% | -7 | 18% | -11% | 4.5
CC(=O)Nc1cccc(-c2nnc3n2CC(C)S3)c1 (stereo not given) | -24% | -18 | -5% | -4 | 6% | 0.1% | 1.4
CCCCCCCCS(=O)C1CS(=O)(=O)CC1O (stereo not given) | 10% | -3 | 21% | -18 | 14% | 0.5% | 1.2
OC(c1cccc(OCc2ccccc2)c1)c1nnc(-c2ccccc2)o1 (stereo not given) | ? | -4 | -2% | -6 | -5% | 1.5% | 2.6
CC1(C2CCCC2)NC(=O)NC1=O (stereo not given) | 1% | . | -10% | 14 | . | -2.7% | .

The list goes on:
Molecule | gsp antagonist | TRPV1 potentiator | gsp agonist | TRPML1 blocker | Sfp PPTase inh | ClpP mod | Menin MLL FP FL
CC(Nc1ccccc1CO)C(=O)Nc1cccc(Cl)c1Cl (stereo not given) | -53% | -7 | 17%[15.4 µM] | 11 | -4% | . | 0.7
COc1ccc(S(=O)(=O)Nc2c(O)ccc3ccccc23)cc1OC | -1% | . | 0%[15.4 µM] | -18 | . | ? | .
COc1cc2c(=O)n(Cc3ccccc3)c(=O)n(CC(=O)NCc3ccco3)c2cc1OC | -7%[15.4 µM] | 4 | -4% | 2 | -16% | 16µM* | -1.0
CCn1cc(C(=O)N2CCCC2)c(=O)c2cc(S(=O)(=O)N3CCOCC3)ccc21 | -4% | 18 | 3% | 2 | 20% | -4.0% | 3.5
COc1cccc(N(C(=O)Cn2nnc(-c3ccc(Cl)cc3)n2)C(C(=O)NCC2CCCO2)c2ccc(C)cc2)c1 (stereo not given) | -7% | -12 | 26% | 3 | 11% | -0.7% | -2.6
CC1CC(C)CN(C(=O)COC(=O)c2cncc(Br)c2)C1 (stereo not given) | 7% | . | -4% | 25 | . | -1.4% | .
Cc1ccc(C(=O)c2sc3c(c2N)c(=O)[nH]c(=O)n3CCc2ccccc2)cc1 | ? | 7 | 0% | 59 | 6% | -6.2% | 7.4
CCCCCC(=O)NN1C(=S)N(c2ccc(OC)cc2)C(=O)C1CC(=O)Nc1ccccc1 (stereo not given) | 2% | -10 | 10%[15.4 µM] | 7 | 23% | -1.4% | 1.9
Cc1cccc(CCN=c2c([N+](=O)[O-])nn(-c3ccccc3)n2O)c1 | -1% | -5 | ? | 18 | 6% | -5.2% | 0.8
Cc1ccccc1NC(=O)Nc1nc2ccc(S(C)(=O)=O)cc2s1 | -3% | -29 | 15%[15.4 µM] | 7 | -4% | -1.5% | 3.6
CC1CCCC(NC(=O)CN(C)S(=O)(=O)c2cnc[nH]2)C1C (stereo not given) | 0% | 8 | 15% | ? | 1% | -0.5% | 2.7
COc1ccc(C(=O)C2CCCN(C(=O)Cn3nc(C)cc3C)C2)cc1F (stereo not given) | 8% | 9 | -1% | . | 11% | -1.4% | -2.9
S=C(NCc1ccccc1)Nc1ccc(Oc2ccccc2)cc1 | -24% | -16 | -51%[inhibitor] | 0 | ? | -1.7% | -1.3
COc1ccc(OC)c(NC(=O)C2C3C=CC(C3)C2C(=O)NCc2cccnc2)c1 (stereo not given) | 8% | 8 | 8%[15.4 µM] | 10 | 17% | . | -3.2
COC(=O)C(Cc1ccccc1)NC(=O)c1cc(S(=O)(=O)N(C)C)ccc1Cl (stereo not given) | 0% | -14 | -4%[15.4 µM] | 12 | 20% | 2.1% | 3.1
Cc1ccc(C(=O)COC(=O)CN2C(=O)C3C4C=CC(C4)C3C2=O)cc1C (stereo not given) | -5% | -14 | ? | 2 | 17% | 1.3% | .
CC(C)COC(=S)Nc1ccccc1 | 1% | -17 | ? | 9 | 15% | 1.6% | -2.2
CC(C)c1ccccc1-n1c(SCC(=O)N2CCc3ccccc3C2)nc2ccccc2c1=O | ? | -5 | -8% | 24 | 15% | -4.8% | -1.3
Clc1ccc(-n2cccc2)cn1 | 3% | -3 | -22% | 0 | 13% | -2.1% | 1.6
COc1cc(NC(=O)c2ccc(Cl)cc2)c(OC)cc1Cl | -20% | -2 | 5% | -6 | -9% | 19% | -0.1

Entries of single compounds from above. Order of values: gsp antagonist, TRPV1 potentiator, gsp agonist, TRPML1 blocker, Sfp PPTase inh, ClpP mod, Menin MLL FP FL
`COc1ccc(S(=O)(=O)Nc2c(O)ccc3ccccc23)cc1OC` across the screens: -1%, ., 0%[15.4 µM], -18, ., ?, .
`CC(C)c1ccccc1-n1c(SCC(=O)N2CCc3ccccc3C2)nc2ccccc2c1=O` across the screens: ?, -5, -8%, 24, 15%, -4.8%, -1.3

Gathered by group, the compounds so far with a thiophene ring, fused or not
Molecule | gsp antagonist | TRPV1 potentiator | gsp agonist | TRPML1 blocker | Sfp PPTase inh | ClpP mod | Menin MLL FP FL
CCc1c(C)sc(NC(=O)Cc2ccccc2C)c1C(=O)N1CCOCC1 | 9% | 5 | -68%[inhibitor] | 26 | -10% | -2.9% | .
CN(C)CCNc1ncnc2c1sc1nc(N3CCCC3)c3c(c12)CC(C)(C)OC3 | 7% | -18 | 12%[15.4 µM] | 9 | -9% | . | 1.5
COc1ccc(NC(=O)c2sc3nc(C)nc(N4CCOCC4)c3c2C)c(OC)c1 | -1% | -36 | 17%[15.4 µM] | -19 | ? | . | 4.2
Cc1sc2ncn(CC(=O)NCCCC(=O)N3CCN(c4ccccn4)CC3)c(=O)c2c1C | -3% | -2 | 0% | -14 | 11% | -6.4% | 10
Cc1ccc(C(=O)c2sc3c(c2N)c(=O)[nH]c(=O)n3CCc2ccccc2)cc1 | ? | 7 | 0% | 59 | 6% | -6.2% | 7.4

Next section
Molecule | gsp antagonist | TRPV1 potentiator | gsp agonist | TRPML1 blocker | Sfp PPTase inh | ClpP mod | Menin MLL FP FL
Cn1c(CN2CCN(C(=O)c3ccco3)CC2)nc2cc([N+](=O)[O-])ccc21 | -17% | 5 | -27% | 6 | 6% | 1.4% | .
CCCN(CC(=O)Nc1ccccc1C)C(=O)/C=C/c1cccs1 | 0% | -3 | -3% | 12 | 3% | 2.1% | 4.1
CCCSc1nnc(NC(=O)CSc2sc3c(O)cc(=O)[nH]c3c2C#N)s1 | 0% | 11 | 23% | 1 | ? | . | 23
O=C1CC(Nc2ccc(N3CCOCC3)cc2)C(=O)N1Cc1ccccc1 (stereo not given) | -26% | 6 | -2% | 1 | -2% | 0.9% | 1.0
CN1CCN(c2nc(-c3ccccc3)c3cc(Cl)ccc3n2)CC1 | 10% | 3 | -11% | 8 | 12% | -14% | -0.9
CCN(C(N)=S)c1ccccc1 | 0%[15.4 µM] | 4 | 1% | -3 | 26% | -1.9% | 1.7
CC(C)c1cc(C(=O)Nc2sc3c(c2C#N)CCC3)no1 | -8% | -16 | -16% | 1 | ? | -0.2% | 5.2
CC1CN(C(=O)c2ccc(NS(=O)(=O)c3ccc(F)c(F)c3)cc2)CC(C)O1 (stereo not given) | -5% | 0 | 2% | -1 | . | -2.9% | .
Cc1cc(C(=O)N/N=C/c2c(CO)cnc(C)c2O)c2ccccc2n1 | -1% | 0 | -70%[inhibitor] | ? | 12% | 0.3% | .
Cc1ccc(-c2csc3nc4c5ccccc5c(NCCCN(C)C)nn4c(=O)c23)cc1 | -4% | -12 | 22% | 7 | ? | 4.2% | 3.7
CC(C)OC(=O)CSc1nnc(-c2ccc(Cl)cc2Cl)o1 | 8% | -6 | -2% | -9 | 2% | 1.4% | 2.8

Compounds as they come (roughly 4.9% active in at least one column).
